# From PubChem BioAssay
# CDC25B-CDK2 inh – human CDC25B-CDK2/CyclinA binding inhibition; HTRF CDC25B-CDK2/CyclinA binding, anti-His/anti-Flag; stronger effect = higher value; z-score (test concentration not listed); actives 0.72% (n = 94,000); AID 1259370;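 also: score is relative to mean and SD of negative controls; strong numbers were not always called active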
# HIV TAR-Tat – HIV-1 TAR-Tat binding disruption; HIV-1 TAR RNA, Tat peptide displacement FRET; stronger effect = higher value; z-score (test concentration not listed); actives 0.6% (n = 100,000); AID 1259389;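 also: score is relative to mean and SD of negative controls; some compounds called inactive have numbers as strong as hits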
# * marks the source's active call; other numbers are inactive results; nt = no result given.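 The calls were made as follows: active = z-score from 3 up in half or more of its runs; inactive = the rest.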
# Order of values – CDC25B-CDK2 inh | HIV TAR-Tat
- CC1Cc2cc(S(=O)(=O)NC(C)(C)C)ccc2N1C(=O)C1CC1 (configuration not stated)
→ nt | 0.24
- Cc1ccc(CNC(=O)NCC2CCN(C3CCCC3)C2)cc1 (configuration not stated)
→ -2.1 | 0.35
- CCOC(=O)c1c(NC(=O)N2CC(CC)Oc3ccccc32)sc2c1CCCC2 (configuration not stated)
→ nt | 1.2
- CCCc1cc(=O)n2[nH]c(NCc3ccc(CC)cc3)nc2n1
→ -0.51 | 1.3
- O=S(=O)(c1ccc(Br)cc1)N1CCCC(c2nc(-c3cccs3)no2)C1 (configuration not stated)
→ nt | 0.77
- Cc1noc(/C=C/N(C)C)c1S(=O)(=O)N(C)c1ccc(C(C)C)cc1
→ nt | 0.56
- CCC1CN(S(=O)(=O)c2ccc3c(c2)NC(=O)CCS3)c2cc(C)ccc2O1 (configuration not stated)
→ nt | 2.1
- Cc1[nH]nc2c1C1(C(=O)N(CC(N)=O)c3ccccc31)C(C#N)=C(N)O2 (configuration not stated)
→ 1.4 | nt
- O=C(OCc1cc(=O)n2nc(C3CC3)sc2n1)c1ccc(Br)cc1
→ nt | 1
- CC(=O)c1c(Nc2cccc(F)c2)oc(C)cc1=O
→ -0.2 | nt
- CCCc1nc2nc(C)cc(Nc3ccccc3Br)n2n1
→ -0.12 | 0.76
- CC1C(=O)Nc2ccc(S(=O)(=O)NC3CCCC(C)C3C)cc2NC1=O (configuration not stated)
→ -1.3 | 0.31
- O=C(Nc1nccs1)c1ccc2oc(=O)n(Cc3ccccc3)c2c1
→ nt | 0.18
- CCOc1ccc(C2C(C#N)=C(N)Oc3c2c(C)nn3-c2ccccc2)cc1OC (configuration not stated)
→ -1.7 | nt
- CCOc1ccc(-c2noc(CSc3nnc(-c4ccccc4)n3C)n2)cc1
→ -2 | -2
- Nc1oncc1-c1ccccn1
→ -1.3 | nt
- CCOCCCNC(=O)NCc1c(C)nn(CC)c1C
→ nt | -1.2
- Cc1ccc(NS(=O)(=O)c2cc(-c3cc(C)no3)ccc2C)c(Cl)c1
→ nt | -0.14
- CCN1C(=O)C2(/C(=C(/O)c3ccc(C)c(F)c3)C(=O)C(=O)N2CCN2CCOCC2)c2ccccc21 (configuration not stated)
→ -0.15 | 0.88
- Cc1cc2nc(COC(=O)c3cccs3)cc(=O)n2o1
→ nt | 1.2
- CCOC(=O)c1noc2nc(C)nc(NC(C)CC)c12 (configuration not stated)
→ nt | 0.42
- CC1CCCN(S(=O)(=O)c2cc(Br)cc3c2N(C(=O)C2CC2)CC3)C1 (configuration not stated)
→ -1 | nt
- Cc1ccc(-c2nn3c(C)nnc3s2)cc1NC(=O)C(C)(C)C
→ 0.32 | -0.41
- CSC1=NCCCN1C(=O)c1ccccc1I
→ -2.5 | nt
- COc1ccc(OC)c(NS(=O)(=O)c2ccc(N3CCCC3=O)cc2)c1
→ nt | -0.47
- COc1ccccc1C1Nc2ccccc2NC2=C1C(=O)CC(c1cccs1)C2 (configuration not stated)
→ -2 | 0.8
- Nc1nc2n(n1)C(c1cccs1)CC(c1ccccc1Cl)N2 (configuration not stated)
→ -1.5 | nt
- O=C(Nc1ccc2c(c1)OCO2)c1c2c(nc3ccccc13)C(=O)N(C1CCCCC1)C2
→ nt | -0.54
- O=C(NCC(c1ccco1)N1CCCC1)c1cc(=O)c2ccc(Br)cc2o1 (configuration not stated)
→ 2.2 | 1.2
- O=S(=O)(c1ccc(Cl)cc1)n1nccc1/C=C/c1cccs1
→ -0.85 | nt

# Other compounds:
# Order of values – CDC25B-CDK2 inh | HIV TAR-Tat
- O=C(O)CSc1nnc(-c2ccccc2Br)o1
→ -2.1 | 0.01
- CCOC(=O)N1CCN(c2c(N3CCN(c4ccccn4)CC3)c(=O)c2=O)CC1
→ -1.2 | 1
- COc1cc(C)c(C)cc1S(=O)(=O)N1CCc2cc3cccc(C)c3nc21
→ 0.59 | 2.3
- Cn1c(=O)c2c(nc(NCCCCO)n2Cc2ccccc2Cl)n(C)c1=O
→ -0.6 | -0.36
- CCOC(=O)C1CCN(S(=O)(=O)c2cc(C(=O)OC)n(C)c2)CC1
→ -0.88 | 0.88
- Cc1ccc(NS(=O)(=O)c2ccc(N3CCCCS3(=O)=O)cc2)cc1C
→ nt | -0.64
- Cc1ccc2c(=O)cc(C(=O)N(Cc3ccccc3)C3CCS(=O)(=O)C3)oc2c1 (configuration not stated)
→ 0.21 | 1.2
- CC1CCCN(C(=O)CCS(=O)(=O)c2ccc3c(c2)NC(=O)C(C)S3)C1 (configuration not stated)
→ nt | 3.4
- O=C1SC(Nc2ccc(F)cc2)C(=O)N1c1ccccc1 (configuration not stated)
→ 1.2 | 1.4
- COCCCN(Cc1cccs1)S(=O)(=O)c1c[nH]c(C(=O)OC)c1
→ nt | 1.5
- CC1Cc2cc(S(=O)(=O)N(C)CC(=O)NC3CCCc4ccccc43)ccc2N1C(=O)C1CCC1 (configuration not stated)
→ nt | -1.1
- CCc1ccc(-c2cc(C)no2)cc1S(=O)(=O)N1CCC(N(C)C(C)C)CC1
→ nt | -0.43
- CCn1c(Sc2c(C)c3cc4c(cc3[nH]c2=O)OCO4)nnc1-c1ccccc1
→ 1.6 | 1
- CSc1ccccc1NC(=O)C1CC(c2c(F)cccc2Cl)=NO1 (configuration not stated)
→ -1.1 | 0.58
- CC1=C(C#N)S(=O)(=O)C(C#N)C(c2cccc(C(F)(F)F)c2)C1 (configuration not stated)
→ -3.1 | nt
- Brc1ccc2c(c1)NC(c1ccccc1)=NC(c1ccncc1)=N2
→ 1.1 | -0.02
- Nc1c(C(=O)O)noc1C(=O)c1ccccc1
→ 1.4 | 0.51
- O=C(Nc1ccc(OCc2cc(=O)n3cc(Cl)ccc3n2)cc1)c1ccco1
→ nt | 0.62
- Cn1c2c(c(=O)n(C)c1=O)C(CC(=O)Nc1ccccc1F)C(=O)N2 (configuration not stated)
→ -1.6 | -0.49
- Nc1cc(-c2ccccc2)nn1-c1ccc(C(=O)O)cc1
→ -1.8 | 1.9
- CCCCN(C)C(=O)c1nn(C)c2c1CSc1ccccc1-2
→ -1.8 | 1.5
- O=C(Nc1ccc(Cl)cc1)C1CCCN(c2ncnc3c2nc2n3CCCCC2)C1 (configuration not stated)
→ nt | 1.9
- CS(=O)(=O)Nc1ccc2[nH]cc(C#N)c2c1
→ -0.83 | nt
- O=C(COc1ccc2ccccc2c1)NS(=O)(=O)c1ccccc1
→ -0.48 | 0.17
- COc1ccc(Cn2nnc3c(C)nnc(Oc4ccccc4C)c32)cc1
→ 3 | 0.43
- Cc1oc(-c2cccs2)nc1Cn1c(SCc2ccc(F)cc2)nc2cccnc21
→ nt | 0.55
- O=C(NC1CC1)c1cc(-c2ccccc2)nc2ccccc12
→ -1.4 | nt
- Cc1cc(C)cc(CC2CC(=O)N(CC(=O)O)C2=O)c1 (configuration not stated)
→ -2.3 | -0.4
- O=C(NCc1cccn1Cc1ccc(F)cc1)NC1CCCC1
→ nt | 0.02
- Cn1cc(C(=O)N2CCc3ccccc3C2)c(=O)c2cc(S(=O)(=O)N3CCOCC3)ccc21
→ -2.1 | nt

# Remaining list, next part:
# Order of values – CDC25B-CDK2 inh | HIV TAR-Tat
- O=C(NCc1n[nH]c(=O)c2ccccc12)C1CCCCC1
→ nt | 0.58
- Cc1ccccc1-c1nc(-c2ccc(Cl)cc2)no1
→ 0.71 | 0.55
- Cc1nc(S(=O)(=O)NC2CCCC2)cn1C
→ nt | 1.4
- O=C(Nc1ccc2c(c1)OCO2)c1cncc(NS(=O)(=O)c2ccc3c(c2)OCCO3)c1
→ nt | 1.3
- Cc1ccc(-c2nnc(SCC(=O)N3CCCC3)o2)cc1
→ 0.17 | 2.4
- Cn1nnnc1SCCCNCc1ccncc1
→ -2.3 | -0.78
- O=C(CCc1nnc2ccc(NCc3ccco3)nn12)Nc1ccc(F)c(F)c1
→ nt | 1.3
- CCS(=O)(=O)N1CCCc2ccc(NS(=O)(=O)c3cc(C)ccc3C)cc21
→ nt | 1.1
- CCC12CN3CC(CC)(CN(C1)C3c1ccc([N+](=O)[O-])o1)C2=O (configuration not stated)
→ -1.1 | 0.92
- CCOc1ccc(C2c3c(oc4ccc(C)cc4c3=O)C(=O)N2c2nc(C)c(C)s2)cc1 (configuration not stated)
→ 0.02 | 1
- O=C1Cc2cc(S(=O)(=O)N3CCc4ccccc43)ccc2N1
→ 0.06 | -0.76
- CCCc1nc2c(=O)n(C)c(=O)nc-2n(C)n1
→ 0.32 | 0.53
- CCOC(=O)c1sc(SC)c(C#N)c1N
→ -1.2 | nt
- CN1CCN(c2ccc(CNC(=O)c3ccco3)cc2)CC1
→ -1.2 | nt
- CCS(=O)(=O)N1CCCc2ccc(NS(=O)(=O)c3ccc(F)cc3)cc21
→ nt | 1.4
- CCOc1cc(C)c(S(=O)(=O)N2CCc3cc4ccc(OC)cc4nc32)cc1C
→ -1.2 | -0.73
- N#C/C(=C\Nc1ccc(F)c(Cl)c1)S(=O)(=O)c1ccccn1
→ -0.2 | nt
- Cc1cccc2[nH]c(SCC(C)C)nc12
→ 0.02 | 0.1
- CCOc1ccc(S(=O)(=O)Nc2c(-n3cnnc3)nn(C)c2C)cc1
→ -1.5 | 0.41
- O=C(CSc1nc(-c2ccco2)cc(C(F)(F)F)n1)Nc1cccc(Cl)c1
→ -1 | -1.6
- O=C(NCCN1CCN(c2ccccc2)CC1)Nc1cc(F)ccc1F
→ -1.7 | -1.3
- Cc1cc2c(cc1S(=O)(=O)C(C)CC(=O)N1CCN(C3CCCCC3)CC1)OCC(=O)N2 (configuration not stated)
→ nt | -0.75
- CC1=C(c2ccc(F)cc2)S(=O)(=O)N(Cc2ccc(C(=O)NCc3ccc(C)o3)cc2)C1=O
→ nt | 0.36
- CCOc1cccc(=O)c2c(C)n(-c3ccc(C(=O)O)cc3)c(C)c12
→ -0.64 | -1
- CCc1[nH]n2c(=O)cc(C)nc2c1-c1ccccc1
→ 0.22 | 0.15
- CC(C)CC1Oc2ccccc2C2CC(c3ccccc3O)=NN12 (configuration not stated)
→ -1.1 | -0.25
- CCOC(=O)Nc1cc(NC(=O)OCC)c(C)nc1C
→ -2.3 | 1.3
- Cc1cc(NC(=O)CN2CCOCC2)n(-c2ccccc2)n1
→ -0.35 | nt
- CC(C)CCC1=NN(C(=O)c2ccc(Cl)cc2)C(O)(C(F)(F)F)C1 (configuration not stated)
→ -1.5 | nt
- CN1CCC(N(C)C(=O)C(=O)c2c[nH]c3ccccc23)CC1
→ -2.1 | nt

# (cont.)
# Order of values – CDC25B-CDK2 inh | HIV TAR-Tat
- Cc1nc2sc(C(c3ccc(Cl)cc3)N3CCN(CCO)CC3)c(O)n2n1 (configuration not stated)
→ 0.21 | nt
- Cc1cn2c(=O)cc(COC(=O)c3ccco3)nc2s1
→ nt | 1.5
- Cn1cccc1-c1cc2n(n1)CCC(=O)N2CCCC(=O)NCCCN1CCCCC1
→ nt | -1.6
- CC(C)CC(=O)Nc1ccc2[nH]c(=O)oc2c1
→ nt | 0.11
- COc1ccc(-c2c3c(=O)n(C)c(=O)n(C)c3c3n2-c2ccccc2NC3c2ccccc2O)cc1 (configuration not stated)
→ -0.29 | 1.7
- COC(=O)COc1ccc(OC)cc1
→ -0.3 | -1.6
- O=C(NCCSCc1ccco1)C1CCN(c2nc3cccnc3s2)CC1
→ nt | -1.7
- CCOC(=O)Cn1c(=O)n(CC(=O)OCC)c2ccccc21
→ 0.48 | 0.74
- Cc1c(Cl)cccc1NS(=O)(=O)c1ccc(-c2ccc(=O)[nH]n2)s1
→ nt | -0.48
- CCC(C)NC(=O)C1CCC(CNS(=O)(=O)c2ccc3c(c2)CC(C)N3C(=O)C2CC2)CC1 (configuration not stated)
→ nt | 1.3
- Cn1c(=O)n(C)c2cc(N3CCOCC3)c(NS(=O)(=O)c3ccccc3F)cc21
→ nt | -0.03
- C=CCn1c2ccccc2c2nn(C)c(=S)nc21
→ -2.1 | nt
- Cc1cc(-c2onc(C)c2C(=O)O/N=C(\N)c2cccc(C(F)(F)F)c2)no1
→ 0.54 | nt
- CC(=O)Nc1c2n(c3ccc(F)cc13)CC(C)(C(=O)NCCC(C)C)N(Cc1ccco1)C2=O (configuration not stated)
→ nt | 1.5
- O=C(NC1CCCCC1)N1CCCCCCC1
→ -0.59 | nt
- Nc1c(-c2nc(-c3ccc4c(c3)OCO4)no2)nnn1-c1cccc(Cl)c1
→ nt | 0.19
- CCOC(=O)c1sc(=S)n(-c2ccccc2C)c1N
→ nt | 1.4
- C(=N\Nc1nn[nH]n1)/c1cccc2nsnc12
→ -5 | nt
- CCOc1ccc(/C(O)=C2\C(=O)C(=O)N(CCCN(C)C)C2c2ccc(F)cc2)cc1C (configuration not stated)
→ -0.36 | 2
- CCOC(=O)CNC(=O)Cn1c(-n2nc(C)cc2C)nc2c(c1=O)CCC2
→ nt | 0.61
- O=C(CSc1nc2c(cnn2-c2ccc(Cl)cc2)c(=O)[nH]1)Nc1cccc(F)c1
→ nt | 2.2
- CC1(C)CC[C@]2(C(=O)O)CC[C@]3(C)C(=CC[C@@H]4[C@@]5(C)CC[C@H](O)C(C)(C)[C@@H]5CC[C@]43C)[C@@H]2C1
→ nt | 3.4
- CCOC(=O)c1cc(-c2ccc(S(=O)(=O)Nc3ccc(Cl)cc3F)s2)on1
→ nt | 0.54

# Full records from above. Screens in order: CDC25B-CDK2 inh	HIV TAR-Tat
# `O=C(NCCSCc1ccco1)C1CCN(c2nc3cccnc3s2)CC1` across the screens: nt	-1.7
# `CC1(C)CC[C@]2(C(=O)O)CC[C@]3(C)C(=CC[C@@H]4[C@@]5(C)CC[C@H](O)C(C)(C)[C@@H]5CC[C@]43C)[C@@H]2C1` across the screens: nt	3.4
# `CC(=O)Nc1c2n(c3ccc(F)cc13)CC(C)(C(=O)NCCC(C)C)N(Cc1ccco1)C2=O` (configuration not stated) across the screens: nt	1.5
# `Cc1cn2c(=O)cc(COC(=O)c3ccco3)nc2s1` across the screens: nt	1.5

# Retrieved by compound from above, 2 records:
# Order of values – CDC25B-CDK2 inh | HIV TAR-Tat
- CCOC(=O)CNC(=O)Cn1c(-n2nc(C)cc2C)nc2c(c1=O)CCC2
→ nt | 0.61
- Cn1cccc1-c1cc2n(n1)CCC(=O)N2CCCC(=O)NCCCN1CCCCC1
→ nt | -1.6
